RanGTP-Impb inh: disruptors of Ran-importin-beta complex formation – biochemical, FRET, CFP-Ran, YFP-importin-beta, homogeneous, primary screen; cell-free CFP-Ran/YFP-importin-beta FRET ratio; 1.1% of 300,000 active; AID 2216; inhibition, % (no concentration beside the values);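 active = most replicates above 15%; inconclusive = exactly half above 15%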;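 also: 0% = DMSO wells and 100% = Ran loaded with GDP instead of GTP; wells of about 40 µL received 100 nL stock; the first replicate is given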
MLL AF4-AF9 inh: MLL-AF4/AF9 protein interaction inhibition; P42568; AlphaScreen, biotin-AF4 peptide binding to FLAG-AF9; inhibition, % at 10 µM; 0.47% of 350,000 active;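 active = every replicate reaching a set inhibition limit, whatever the replicate mean, cut at about 25% in these data; inconclusive = mean inhibition reaches that limit but some replicates miss it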;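 also: 0% = plate neutral control median and 100% = total signal loss; the record names both 10 and 1 µM as test concentration; the first replicate is given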
UCH37 DUB inh: inhibitors of human deubiquitinating enzyme UCH37; inhibition, % (no concentration beside the values); 0.33% of 330,000 active; Q9Y5K5; purified proteasome/UCH37, Ub-AMC cleavage fluorescence; AID 588478;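 active = mean of two replicates above 20%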;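 also: 0% = compound-free wells with enzyme and 100% = wells lacking proteasome; stock transfer was 100 nL into about 20 µL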
Target sequence (Q9Y5K5 whole entry, looked up): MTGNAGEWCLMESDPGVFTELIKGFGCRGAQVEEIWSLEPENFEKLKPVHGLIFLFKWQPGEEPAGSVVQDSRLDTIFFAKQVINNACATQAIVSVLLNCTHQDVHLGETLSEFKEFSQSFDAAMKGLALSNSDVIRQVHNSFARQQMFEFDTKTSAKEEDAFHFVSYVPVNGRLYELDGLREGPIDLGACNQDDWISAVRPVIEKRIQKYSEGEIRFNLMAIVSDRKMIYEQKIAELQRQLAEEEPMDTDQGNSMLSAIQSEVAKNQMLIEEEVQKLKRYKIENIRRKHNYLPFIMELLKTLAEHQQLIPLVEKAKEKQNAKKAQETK
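Signal – fluorescence, ex 355 nm, em 460 nm · System – Proteasome-bound UCH37 · Input – 0.15 nM proteasome as dispensed · Timing – 30 min preincubation with enzyme, 25 min cleavage at room temperature · Read-out basis – percent inhibition of cleavage signal versus uninhibited and no-proteasome wells · Medium – Tris-HCl pH 7.4 with ATP-MgCl2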
Vif A3G: HIV-1 Vif–A3G interaction blockers – biochemical, TR-FRET, GST-Vif 1-94, biotin-A3G peptide, dose response retest, primary screen (AID 1117319) | one-dose inhibition, %; IC50 in µM for titrated hits | 0.57% of 260,000 active | TR-FRET GST-Vif / biotin-A3G peptide binding; higher % means a stronger effect; test concentration not given here; strong numbers were not always called active;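 active = above the screen mean plus three standard deviations and confirmed in dose response; inconclusive = results disagree or hit not tested in dose response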;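 also: Vif residues 1-94 fused to GST binding biotinylated APOBEC3G peptide 110-148; 0% = full assay without inhibitor and 100% = GST in place of GST-Vif; retest series ran down from 100 µM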
FGF22 binding: binders of recombinant human FGF22 by thermal shift. Q9HCT0. SYPRO orange fluorescence; percent of sucrose octasulfate shift, DMSO zero. calls only at 9.99 µM. 1.5% of 340,000 active. AID 651658;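 active = melting point raised past a set limit in the mean and every replicate; inconclusive = no clear call; three in four hits are not shown here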
Target sequence (Q9HCT0 whole entry, looked up): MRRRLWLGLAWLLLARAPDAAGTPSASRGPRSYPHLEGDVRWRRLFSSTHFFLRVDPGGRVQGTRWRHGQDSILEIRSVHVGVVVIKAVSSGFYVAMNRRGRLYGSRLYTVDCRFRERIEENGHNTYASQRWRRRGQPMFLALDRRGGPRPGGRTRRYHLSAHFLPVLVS
HNF4A DNA FP: change in binding of human HNF4 alpha to DNA. P41235. HNF4a-FITC DNA binding, fluorescence polarization, 1 h. activity change, % at 10 µM. 0.3% of 360,000 active. AID 1224865; in the data active = activity change above about 30%, passing the limit was not always enough;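 also: controls were the assay level and a saturating level of protein; the project sought stronger binding though the title names inhibitors; some compounds called inactive have numbers as strong as hits; positive values seem to mean higher polarization but the record does not say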
Target sequence (P41235 whole entry, looked up): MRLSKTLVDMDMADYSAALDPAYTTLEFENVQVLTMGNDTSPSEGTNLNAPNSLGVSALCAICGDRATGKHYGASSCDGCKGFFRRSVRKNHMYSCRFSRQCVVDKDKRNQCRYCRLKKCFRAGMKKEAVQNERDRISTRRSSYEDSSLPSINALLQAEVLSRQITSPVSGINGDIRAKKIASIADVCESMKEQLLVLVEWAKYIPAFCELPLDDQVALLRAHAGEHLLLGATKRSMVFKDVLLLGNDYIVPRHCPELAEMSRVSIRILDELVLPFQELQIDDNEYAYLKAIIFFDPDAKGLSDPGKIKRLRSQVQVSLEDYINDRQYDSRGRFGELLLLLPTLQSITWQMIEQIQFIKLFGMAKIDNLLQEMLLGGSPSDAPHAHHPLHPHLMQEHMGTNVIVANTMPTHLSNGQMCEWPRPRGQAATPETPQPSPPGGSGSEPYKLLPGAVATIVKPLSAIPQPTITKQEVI
Ecoli growth: E. coli growth inhibition; OD600 absorbance (no concentration beside the values); 0.21% of 330,000 active; Escherichia coli growth, OD600, 23 h; active compounds read low;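 active = OD600 absorbance below the run mean of sample wells minus 3.6 SD, in any replicate, cut at about 0.56 in these data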;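 also: stock transfer was 300 nL into about 60 µL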
Numbers without * were called inactive; i = inactive; ? = inconclusive; nt = no result given; & = joins results of further samples. These rows are one share of the data (hit frequency here may not be typical).

Second line of a record – RanGTP-Impb inh	MLL AF4-AF9 inh	UCH37 DUB inh	Vif A3G	FGF22 binding	HNF4A DNA FP	Ecoli growth
Cc1cc(C(=O)N2CCOCC2)ccc1[N+](=O)[O-]
    2.1	-1.6	4.3	?	i	-0.9	0.698
Cn1nccc1NC(=O)Nc1cccc(Br)c1
    1.0	nt	4.7	-6.0%	nt	3.1	0.639
COc1ccccc1-c1ccc(/C=C2/C=C(CC(C)C)OC2=O)o1
    ?	0.5	-252.9	20.2%	nt	11.7	0.734
CN1CCN(CCCNC(=S)Nc2ccc(F)c(Cl)c2)CC1
    -2.5	5.3	-0.6	-6.2%	i	-0.4	0.666
CCCn1c(C(C)Nc2nc(-c3cccc(Br)c3)cs2)nc2ccccc21 (stereo unspecified)
    -1.7	1.0	0.9	nt	i	1.5	0.67
O=C(NCC1OCCc2ccccc21)c1ccc(NC(=O)c2cccc(Br)c2)cc1 (stereo unspecified)
    ?	nt	1.1	nt	nt	-3.0	0.716
O=S(=O)(Nc1nc2ccccc2nc1NCc1ccco1)c1ccccc1
    0.4	nt	-3.7	11.1%	nt	-1.7	0.705
Cc1ccc(NC(=O)CN(C)Cc2nc3c(Br)cc(Br)cc3c(=O)[nH]2)cc1
    -3.7	-2.6	1.0	1.0%	i	4.8	0.706
Cc1ccc(NC(=O)c2oc3ccccc3c2C)c([N+](=O)[O-])c1
    -2.6	0.1	7.7	-4.3%	i	5.8	0.718
CS(=O)(=O)N1CCN(c2c(Cl)cccc2[N+](=O)[O-])CC1
    -0.5	10.0	4.0	5.2%	i	-2.8	0.698
CC(C)Oc1ccc(/C(O)=C2/C(=O)C(=O)N(CCN(C)C)C2c2ccco2)cc1 (stereo unspecified)
    1.3	nt	5.9	1.2%	nt	3.8	0.779
COc1cc2nc(Cl)nc(N3CCCCC3)c2cc1OC
    -1.6	1.2	5.5	-2.1%	nt	-0.5	0.697
N#Cc1ccccc1NC(=O)COC(=O)COc1ccccc1[N+](=O)[O-]
    -3.3	-1.4	3.1	2.2%	i	5.2	0.726
O=C(Nc1ccc(Cl)cc1)C1=Cc2ccccc2OC1
    2.2	nt	nt	-1.4%	nt	-1.2	nt
COc1cccc2c1Oc1ncccc1N(C(=O)CCC(=O)NCc1ccccc1F)C2
    1.4	-2.7	0.9	nt	i	-2.0	0.705
O=C(Nc1ccccc1OC(F)F)c1ccc(N2CCCC2=O)cc1
    nt	-1.6	nt	-7.3%	i	-0.4	nt
O=S1(=O)N=C2CCCCCN2C(c2ccc(F)cc2)N1 (stereo unspecified)
    3.1	-2.1	3.5	nt	nt	-1.3	0.657
CCOc1ccc2nc(NC(=O)C3=NN(c4ccccc4)C(=O)CC3)sc2c1
    0.6	1.4	6.6	-8.0%	i	-6.4	0.645
O=C(O)CSc1nnc(COc2cccc3cccnc23)n1-c1cccc(C(F)(F)F)c1
    0.1	-1.8	-1.6	5.0%	i	nt	0.722
NC(=O)N/N=C/c1ccc([N+](=O)[O-])o1
    nt	-4.0	nt	nt	i	-1.7	nt
CC(OC(=O)CCN1C(=O)C2CC=CCC2C1=O)C(=O)c1ccc(F)cc1 (stereo unspecified)
    nt	0.1	-0.4	-18.7%	i	4.7	0.659
CN(C)c1nc(SCc2ccccc2Cl)nc2c1CCCC2
    1.9	nt	0.7	-2.8%	nt	-0.4	0.734
Cc1ccc(SCC(=O)O/N=C(\N)c2ccc([N+](=O)[O-])cc2)cc1
    1.3	nt	6.8	-2.9%	nt	3.9	0.7
COc1nc(-c2ccccc2)cc(-c2ccc(OC)c(OC)c2)n1
    0.2	nt	-136.9	-3.7%	nt	18.3	0.645
COc1ccc(-c2nc(CN3CCN(C(=O)c4ccco4)CC3)c(C)o2)c(OC)c1C
    3.3	3.9	-1.9	nt	i	-3.6	0.673
Oc1cc(-c2ccncc2)cc2cccnc12
    nt	28.8*	0.2	nt	i	-1.2	0.676
CC1=CC(=O)[C@@H](OC(=O)Nc2ccc(C)cc2)[C@@H](c2ccccc2Br)N1C
    nt	-3.7	nt	nt	i	-2.4	nt
CC1=C(C(=O)OCc2ccc3c(c2)OCO3)C(c2ccc(O)c([N+](=O)[O-])c2)NC(=O)N1 (stereo unspecified)
    -0.3	-1.2	0.7	-6.4%	i	0.6	0.686
Cc1nnc(NC(=O)CSc2ccccc2N)s1
    1.5	-0.9	-1.7	-3.2%	i	1.5	0.67
Cc1ccc(CNC(=O)CSc2nc(C)cs2)cc1
    -0.6	-2.6	0.7	-7.3%	i	-2.2	0.629
COC(=O)[C@H]1CN(C(=O)c2ccccc2)C(=O)N1
    -1.8	-0.1	0.9	nt	i	1.4	nt
O=C(NN1CCCCC1)c1cnn2c(C(F)F)cc(-c3ccccc3)nc12
    0.4	-0.2	0.3	-4.9%	i	1.0	0.699
CCC1=C(c2ccc(C)cc2)S(=O)(=O)N=C1N1CCC(C(=O)NCCCN2CCCCC2)CC1
    -0.3	-5.9	1.0	nt	i	-1.7	0.67
CCOC(CNc1cc(C)nc2c(-c3ccccc3OC)c(C)nn12)OCC
    -5.9	-48.5	2.4	-9.0%	i	-5.3	0.652
CC(C)CN(C(=O)COC(=O)CSc1ccc(Br)cc1)C1CCS(=O)(=O)C1 (stereo unspecified)
    nt	-3.2	1.0	-1.8%	i	2.5	0.702
COc1ccc(C(C)(C)C)cc1NC(=O)c1cccc(S(=O)(=O)N2CCN(C(C)=O)CC2)c1
    -2.6	1.0	nt	nt	nt	3.0	nt
CCOP(=O)(OCC)c1nc(-c2ccc(C)cc2)oc1N1CCOCC1
    6.1	nt	-147.8	nt	nt	2.7	0.708
O=C(Nc1ccc2snnc2c1)N1CCSCC1
    3.9	nt	2.5	3.3%	nt	3.9	0.674
O=S(=O)(CCOc1ccccc1)N1CCOCC1
    -0.2	nt	3.4	-12.9%	nt	4.3	0.656
COc1ccccc1/C=N/Nc1nc(C)cc(C)n1
    1.6	1.4	nt	7.6%	i	9.5	nt
Cc1ccc(NC(=O)CN(C)C(=O)COC(=O)CCS(=O)(=O)c2ccc(C)cc2)cc1
    -3.7	1.7	1.7	?	i	-1.7	0.723
FC(F)Oc1ccc(NC(=S)NCC2COc3ccccc3O2)cc1 (stereo unspecified)
    1.3	nt	2.7	8.2%	nt	4.1	0.708
C=CCN1C(=O)C(Cc2ccc(C)cc2)S/C1=N/N=C/c1ccco1 (stereo unspecified)
    -1.9	-0.9	nt	3.7%	i	6.3	nt
O=C(Nc1nnc(C2CC2)s1)C1Cc2ccccc2CN1S(=O)(=O)c1cccs1 (stereo unspecified)
    ?	nt	1.8	5.7%	nt	-2.0	0.693
Oc1ccc(-c2[nH]ncc2-c2cccc3cccnc23)c(O)c1
    17.4*	nt	2.1	-0.8%	nt	-0.3	0.637
C/C(=N\NC(=O)c1ccc(O)cc1)c1ccc(N2CCOCC2)cc1
    0.2	-1.0	nt	-5.0%	i	-1.6	nt
CN(C)c1cccc(C(=O)NC2CCCc3ccccc32)c1 (stereo unspecified)
    0.9	3.7	-11.3	nt	i	0.4	0.709
Cc1cc(C)n(C(=O)CNc2cccc(Cl)c2C)n1
    -2.4	nt	4.5	?	nt	2.2	0.736
COc1ccc(-n2c(CN3CCN(c4ccccn4)CC3)nc3ccc([N+](=O)[O-])cc3c2=O)c(OC)c1
    -0.3	6.8	4.3	?	i	3.8	0.686
O=C1NCC(COCc2ccco2)O1 (stereo unspecified)
    1.4	1.0	-0.4	27.5%	i	0.8	0.699
CC(Sc1nnc(Nc2ccccc2)s1)C(=O)NC1CCCc2ccccc21 (stereo unspecified)
    ?	nt	0.5	?	nt	3.4	0.621
COCCn1c(=NC(=O)CCS(=O)(=O)c2ccccc2)sc2cc(F)ccc21
    0.4	-3.3	1.2	16.9%	i	-0.3	0.717
C[C@H]1CN([C@@H](C)CO)C(=O)CCCn2cc(nn2)CO[C@@H]1CN(C)S(=O)(=O)c1ccccc1C#N
    nt	-1.8&-0.9	nt	-1.7%	i	-2.7	nt
CCn1cc(C(=O)Nc2ccccc2)c(=O)c2ccc(C)nc21
    3.3	nt	2.6	0.8%	nt	nt	0.749
CN(C)CCCNc1oc(-c2ccccc2Cl)nc1S(=O)(=O)c1ccc(F)cc1
    3.1	14.4	3.4	-5.3%	i	1.1	0.691
CN(C)S(=O)(=O)N1CCC(Oc2ccc(C(=O)NC3CCCCC3)cc2)CC1
    -0.8	-0.9	2.0	2.5%	i	2.3	0.69
CS(=O)(=O)N(CC(=O)NCc1ccco1)c1ccc(OCc2ccccc2)cc1
    1.5	2.2	4.1	nt	i	2.9	0.669
O=C(COc1ccccc1[N+](=O)[O-])NCc1cccnc1
    0.3	nt	3.3	2.0%	nt	4.2	0.667
Cc1nn(C)c2nc(-c3cccs3)cc(C(F)(F)F)c12
    -1.1	0.0	-67.2	-1.2%	i	0.3	0.708
N#Cc1nc(COc2ccc(Cl)cc2)oc1N1CCCCCC1
    nt	nt	4.6	-2.5%	nt	-0.5	0.691

Next section
Second line of a record – RanGTP-Impb inh	MLL AF4-AF9 inh	UCH37 DUB inh	Vif A3G	FGF22 binding	HNF4A DNA FP	Ecoli growth
CNC(=S)NC1CC2CCCC(C1)N2Cc1ccccc1OC (stereo unspecified)
    -2.4	0.3	-4.5	2.0%	i	-2.2	0.646
CCN(CC)CCCN1C(=O)C(O)=C(C(=O)c2sc(C)nc2C)C1c1ccco1 (stereo unspecified)
    ?	nt	9.6	24.1%	nt	2.8	0.703
Cc1ccc(C)c(OCc2cc(C(=O)N3CCOCC3)no2)c1
    1.6	1.4	1.3	-2.9%	i	-0.6	0.718
CC(=O)Nc1sc(N/N=C\c2ccccc2F)nc1-c1cccs1
    1.7	-4.6	nt	nt	i	-1.1	nt
COc1ccccc1NC(=O)C(CCS(C)(=O)=O)N1C(=O)c2ccccc2C1=O (stereo unspecified)
    3.4	nt	1.2	?	nt	1.5	0.728
CCOc1ccc(NC(=O)CS(=O)(=O)c2cn(C)c3ccccc23)cc1
    -4.3	5.0	2.0	0.1%	i	5.2	0.685
COc1ccccc1OCC(=O)NCCNC(=O)COc1ccccc1OC
    1.3	nt	2.0	-5.0%	nt	-1.3	0.672
Cc1nc(CC(=O)c2c(C)cc(O)cc2O)cs1
    3.7	nt	4.8	-1.8%	nt	8.5	0.675
Cc1c(C(=O)NC2CCCc3ccccc32)oc2ccccc12 (stereo unspecified)
    0.0	nt	1.7	-1.1%	nt	-3.1	0.737
COc1ccc(O)c(-c2cc(-c3cccc(Br)c3)n[nH]2)c1
    -1.7	nt	-2.9	19.3%	nt	-0.9	0.69
CCN(CC)S(=O)(=O)c1cc(C(=O)OCC(=O)c2ccc3c(c2)NC(=O)CO3)ccc1F
    -0.8	nt	6.4	-12.2%	nt	2.0	0.765
CCN(CCCNC(=O)CNC(=O)c1nn(-c2ccc(OC)cc2)c(=O)c2ccccc12)c1cccc(C)c1
    -0.5	8.0	1.4	nt	i	-3.2	0.713
CC(C)(C)C1CCC(=NNC(=O)c2cc3c(s2)CCCC3)CC1 (stereo unspecified)
    1.1	-5.1	-0.8	nt	i	-1.9	0.653
COCCCNC(=O)Nc1ccc(F)cc1F
    -1.9	nt	-0.2	3.9%	nt	1.1	0.711
COc1cc(/C=C2\SC(=S)N(NC(=O)c3cccnc3)C2=O)ccc1O
    -12.8	-0.6	14.1	-10.1%	i	51.9*	0.646
Cc1ccc(NC(=O)Cc2nnc(N)s2)cc1
    -2.9	-1.8	1.1	-1.4%	i	2.5	0.683
COc1cc(CN2C[C@@H](CO)O[C@@H](n3cnc4c(NCC(C)C)ncnc43)C2)cc(OC)c1OC
    nt	-1.0	nt	nt	i	4.9	nt
